BJeLR viability – MLPCN primary cell-based screen for lethality selective to Ras in HRASV12 cells | BJeLR (HRASV12) viability, CellTiter-Glo ATP luminescence, 48 h; reference of the scale not given here | inhibition, % (no concentration beside the values) | 300,000 tested, 0.17% active;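 active = replicate mean above 50%; inconclusive = above 50% but judged a plate artefact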;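 note: 50 nL library stock added to about 25 µL; numbers are from one replicate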
ugtP null kill – growth inhibition of ugtP-null S. aureus, primary screen, RN4220 ugtP deletion, OD600 | 16 h; some inactives read as strong as hits | growth inhibition, % (concentration not given with the values) | 330,000 tested, 0.54% active | AID 1259309, 2017;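 active = z-score under -3 and OD600 up to 0.15 on both plates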;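 note: plate controls were untreated wells for no effect and antibiotic for full effect; wells of about 80 µL received 100 nL stock; the first replicate is given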
Mtb hypoxia rep – PubChem AID 1159583. M. tuberculosis hypoxia-regulated fluorescent reporter, fluorescence. fluorescence inhibition, % (test concentration not listed). 300,000 tested, 0.1% active;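 active = 35 to 45% if threefold the growth effect, above 45% if 1.5-fold the growth effect; inactive = the rest, general growth blockers included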;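 note: wells of about 50 µL received 100 nL stock; 0% = vehicle wells and 100% = reference inhibitor wells; whole bacteria with a GFP reporter of the hypoxia response; strong numbers were not always called active; many hits fall short of the cut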
PrP UTR inh – inhibition of PrP 5' UTR reporter expression. inhibition, % (concentration not given with the values). cell-based PrP 5' UTR mRNA reporter, plate reader. 340,000 tested, 0.35% active;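 active = every replicate at 50% or more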;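 note: 0 = median of the neutral control wells; tested in H4 reporter cells; numbers are from one replicate; inactives centre near -14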
Sa RN4220 lethal – growth inhibition of S. aureus RN4220, primary screen, OD600 | 330,000 tested, 0.33% active | 16 h | inhibition, % (no concentration beside the values);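 active = z-score of -3 or lower and OD600 up to 0.18 on both plates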;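 note: plate controls were untreated cells for no effect and reference antibiotic for full effect; stock transfer was 100 nL into about 80 µL; one replicate is shown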
Autofluor counter – counter-screen for toxin protease inhibitors: compound fluorescence. compound autofluorescence counterscreen, microsphere flow cytometry; stronger effect = higher value. fluorescence intensity (no concentration beside the values). 360,000 tested, 3.1% active;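 active = at least 3 SD above the mean of all compounds, about 16000 in these data; inconclusive = too few beads counted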;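 note: 100 nL of 1 mM stock went into each well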
Mtb hypoxia rep growth – recorded beside Mtb hypoxia rep, whose call it bears; growth inhibition, %; measured here: M. tuberculosis growth (absorbance);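 0% = vehicle and 100% = reference antibiotic; read after six days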
Active calls of the source: *; ? = inconclusive; nt = not tested or not shown; & = joins results of further samples.

A first look:
Below each compound: ugtP null kill	Mtb hypoxia rep growth	BJeLR viability	Autofluor counter	Mtb hypoxia rep	Sa RN4220 lethal	PrP UTR inh
1. O=C(CSCCS(=O)(=O)c1ccc(Cl)cc1)Nc1ccccc1
    -1	5	-6	5205	-6	4.2	-13
2. COc1ccccc1N(C(=O)c1snc(C(N)=O)c1N)C(C(=O)NC1CCCCC1)c1cccc(OC)c1OC (stereo unspecified)
    -2	12	1	4866	12	2.5	-6
3. CC(C)N1CCC(N2CCN(Cc3ccc4nsnc4c3)CC2CCO)CC1 (stereo unspecified)
    -15	6	6	4620	-9	1.6	-1

This part in full, from the start:
Below each compound: ugtP null kill	Mtb hypoxia rep growth	BJeLR viability	Autofluor counter	Mtb hypoxia rep	Sa RN4220 lethal	PrP UTR inh
1. O=C(CSCCS(=O)(=O)c1ccc(Cl)cc1)Nc1ccccc1
    -1	5	-6	5205	-6	4.2	-13
2. COc1ccccc1N(C(=O)c1snc(C(N)=O)c1N)C(C(=O)NC1CCCCC1)c1cccc(OC)c1OC (stereo unspecified)
    -2	12	1	4866	12	2.5	-6
3. CC(C)N1CCC(N2CCN(Cc3ccc4nsnc4c3)CC2CCO)CC1 (stereo unspecified)
    -15	6	6	4620	-9	1.6	-1
4. COCCNC(=O)c1ccccc1NC(=O)COc1ccccc1
    -2	6	-18	20130*	3	1.8	-32
5. c1csc(-c2nnc(NC3CCCCC3)c3ccccc23)c1
    -22	-1	-12	10526	-4	-8.3	-7
6. Nc1cccc(-c2nc3cc(S(=O)(=O)c4ccc5oc(-c6cccc(N)c6)nc5c4)ccc3o2)c1
    -13	7	-1	7820	1	6.2	-3
7. Cc1ccc(C)c(N2CCN(C(=O)C3CCN(S(=O)(=O)c4c(C)noc4C)CC3)CC2)c1
    1	4	-2	3470	4	0.7	2
8. CN(CC(=O)Nc1ccc(F)cc1)C(=O)Cn1nnc(-c2ccccc2)n1
    0	10	-3	5747	-1	2.0	7
9. CCOC(=O)c1oc2ccccc2c1NC(=O)C1CCCCC1
    -4	-1	-8	10993	-12	-4.3	-14
10. O=C(NN=Cc1ccc(N2CCOCC2)cc1)c1ccncc1
    -2	2	nt	nt	2	0.9	nt
11. Cc1nnc(SCC(=O)NNC(=O)c2ccccc2)n1Cc1ccccc1
    3	4	nt	3654	4	0.5	-24
12. COc1ccc(C(=O)c2oc3ccc(Br)cc3c2NC(C)=O)cc1
    -2	3	2	5925	2	-12	-20&-8
13. CCOc1ccc2nc(NC(=O)CN3C(=O)NC4(CCCC4)C3=O)sc2c1
    14	0	-10	4620	-1	0.2	-27
14. COc1ccc2oc(C)c(NC(C)=O)c2c1
    4	5	-9	8922	14	3.5	-14
15. O=c1[nH][nH]c(-c2ccccc2)c1C=Nc1ccc(Cl)cc1
    -1	10	2	8565	10	2.8	-34
16. CCNC(=S)NN=C(C)c1ccc(N2CCOCC2)cc1
    16	nt	nt	nt	nt	4.0	nt
17. COc1cc(NC(=O)c2ccccc2Cl)c2ncccc2c1
    -3	9	0	3889	11	-5.6	-11
18. COC(=O)c1cc(C(=O)OC)cc(N2C(=O)CC(NNC(=O)c3ccccc3Br)C2=O)c1 (stereo unspecified)
    12	10	6	17445*	13	6.9	-12
19. CN1C(=O)NC(=O)C2(CCCC2)C1=O
    -2	11	nt	3545	19	2.3	-20
20. O=C(CN1CCC(n2nnc3cc(F)ccc32)CC1)NC1CCCCC1
    1	14	2	10451	3	3.1	-24

Exported screen by screen: part of the list above.
1: O=C(CSCCS(=O)(=O)c1ccc(Cl)cc1)Nc1ccccc1
2: COc1ccccc1N(C(=O)c1snc(C(N)=O)c1N)C(C(=O)NC1CCCCC1)c1cccc(OC)c1OC (stereo unspecified)
3: CC(C)N1CCC(N2CCN(Cc3ccc4nsnc4c3)CC2CCO)CC1 (stereo unspecified)
4: COCCNC(=O)c1ccccc1NC(=O)COc1ccccc1
5: c1csc(-c2nnc(NC3CCCCC3)c3ccccc23)c1
6: Nc1cccc(-c2nc3cc(S(=O)(=O)c4ccc5oc(-c6cccc(N)c6)nc5c4)ccc3o2)c1

Assay by compound | 1 | 2 | 3 | 4 | 5 | 6
ugtP null kill | -1 | -2 | -15 | -2 | -22 | -13
Mtb hypoxia rep growth | 5 | 12 | 6 | 6 | -1 | 7
BJeLR viability | -6 | 1 | 6 | -18 | -12 | -1
Autofluor counter | 5205 | 4866 | 4620 | 20130* | 10526 | 7820
Mtb hypoxia rep | -6 | 12 | -9 | 3 | -4 | 1
Sa RN4220 lethal | 4.2 | 2.5 | 1.6 | 1.8 | -8.3 | 6.2
PrP UTR inh | -13 | -6 | -1 | -32 | -7 | -3

(next part)
Below each compound: ugtP null kill	Mtb hypoxia rep growth	BJeLR viability	Autofluor counter	Mtb hypoxia rep	Sa RN4220 lethal	PrP UTR inh
21. C[N+](C)(C)Cc1ccccc1
    -2	-7	-10	6294	0	1.5	-7
22. CCOC(=O)CSc1nnc(CNC(=O)c2cccs2)n1-c1ccccc1
    -1	3	4	24331*	4	0.1	-2
23. O=c1[nH]c2cc(S(=O)(=O)CCO)ccc2o1
    5	0	2	4779	-2	8.7	-30
24. Cc1cc(C)c2oc(=O)cc(CN3CCN(Cc4ccc5c(c4)OCO5)CC3)c2c1
    -1	nt	11	3681	nt	4.0	9
25. COc1ccccc1C(C#N)N1N=C(C)CC1(C)C (stereo unspecified)
    11	3	1	2096	2	12	-14
26. COC(=O)C1=C(c2ccc(OC(F)(F)F)cc2)CC2CCC1N2C(=O)NCCc1ccccc1 (stereo unspecified)
    7	5	nt	nt	5	-6.7	nt
27. O=C(Nc1nccs1)C1CC2CCC1C2 (stereo unspecified)
    6	5	-5	9462	3	0.4	-3
28. CCc1nnc(NC(=O)CSc2nc(-c3ccccc3)c(-c3ccccc3)o2)s1
    -2	4	-2	2387	6	3.9	-3
29. Cc1ccc2c(CN3CCN(Cc4ccc5c(c4)OCO5)CC3)cc(=O)oc2c1C
    4	-3	2	5898	3	3.6	-13&-14
30. O=C(CN1CCOCC1)Nc1cc([N+](=O)[O-])ccc1Cl
    3	5	3	4216	15	4.5	-22
31. O=S(=O)(NC(=NCc1ccccc1)c1ccc(F)cc1)c1ccc(Cl)cc1
    1	5	2	4145	13	-0.4	21
32. O=C(Nc1cccc2c1CCCC2)c1ccc(Cl)c([N+](=O)[O-])c1
    -5	9	6	6775	4	1.2	-26
33. CC(C)CN(C(=O)COC(=O)c1ccc2c(c1)OCO2)c1c(N)n(Cc2ccccc2)c(=O)[nH]c1=O
    1	3	-8	5987	9	1.5	-5
34. Cc1ccc(-c2nnn(CC(=O)N(CC(=O)NC3CCCCC3)c3ccccc3F)n2)o1
    18	5	-13	5086	4	4.2	-18
35. COCCC(=O)N1CCc2ccc(NC(=O)c3ccc(C(F)(F)F)cc3)cc2C1
    15	9	4	3910	-2	5.7	-23
36. CC(C)C(C(=O)N1CCOCC1)N1C(=O)c2ccccc2C1=O (stereo unspecified)
    8	4	5	13599	13	2.7	-11
37. CCOc1ccc2ncc(C(=O)c3ccc(OC)cc3)c(N3CCN(CC)CC3)c2c1
    -3	nt	2	4406	nt	-2.2	-8
38. Cc1cccc(NC(=S)N=Nc2c(O)[nH]c3ccccc23)c1
    95*	10	-5	2303	14	99*	10
39. CC(C)(C)OC(=O)NNC(=O)NC12CC3CC(CC(C3)C1)C2
    1	2	-4	3471	8	1.2	-10
40. OC1CCN(Cc2cccc(Oc3ccccc3)c2)CC1
    -2	6	-2	5847	4	2.3	-29
41. CCOc1cc(C=NNC(=O)Cn2nc([N+](=O)[O-])cc2C)cc(Br)c1OCc1ccccc1C
    -18	11	nt	nt	9	-3.3	nt
42. CN1/C(=C\C(=O)Nc2cccnc2)c2ccccc2CC1(C)C
    nt	nt	17	10351	nt	nt	-26
43. O=C(CNC(=O)c1cc(=O)[nH]c2ccc(S(=O)(=O)N3CCOCC3)cc12)Nc1ccc(F)c(F)c1
    -1	10	nt	3358	1	-1.9	-10
44. CC(C)CN1C(=O)/C(=C/c2cccs2)NC1=S
    50	15	-15	13103	-2	-5.9	-15
45. CCc1nnc(NC(=O)c2cccnc2SC)s1
    -1	-8	1	4322	7	-2.3	-10
46. Cc1sc(NC(=O)c2ccc(F)cc2)c(CN2CCCCCC2)c1C
    7	4	-22	8927	-4	1.9	-35
47. CN(C)C(CNC(=O)c1ccco1)c1cccs1 (stereo unspecified)
    4	-1	-4	nt	-2	1.4	-15
48. CN(CC(=O)NCC1CCCCC1)CC(=O)Nc1ccc(F)cc1
    3	-3	nt	4543	-1	2.5	-13
49. COc1ccc(C=NNC2=NS(=O)(=O)c3ccccc32)cc1
    -2	1	nt	nt	13	-0.7	nt
50. CCOC(=O)N1CCC(NC(=O)C2CCCN(C(=O)c3cc4sccc4n3C)C2)CC1 (stereo unspecified)
    5	2	9	4333	6	1.0	-7
51. Oc1[nH]c2ccccc2c1N=Nc1cccc(Cl)c1
    3	-5	15	3507	10	2.5	-53
52. Cn1nnnc1SCC(=O)N1c2ccccc2CCc2ccccc21
    -3	-1	5	6149	6	-1.6	-30
53. CCCn1c(SCC(=O)c2cc(OC)ccc2OC)nnc1-c1ccco1
    4	3	-2	3911	-1	0.4	-20
54. CCC(C)c1c(O)nc(SCC(=O)N2CCCCC2)[nH]c1=O (stereo unspecified)
    -5	10	3	4173	1	2.7	-33
55. CN1CCN(S(=O)(=O)c2ccc(NC(=S)NC(=O)C3CC3)cc2)CC1
    11	4	-12	2219	2	2.4	-6
56. CC(=O)N1CCC(N2CCN(c3ccccc3F)CC2)CC1
    7	4	-19	8325	9	2.8	-54
57. COC(=O)c1cc(CSc2nc3ccccc3c(=O)n2C)oc1C
    17	3	15	6708	3	11	-10
58. COc1cccc(C(=O)NCCSc2ccc(F)cc2)c1
    14	9	5	5321	11	5.6	-83
59. CC1=NN(c2ccccc2)C(=O)/C1=C/c1c(O)[nH]c(=S)[nH]c1=O
    nt	nt	0	2849	nt	nt	-4
60. Cc1ccc(F)cc1NC(=O)N1CCN(C2c3ccccc3-c3ccccc32)CC1
    -3	6	-8	3712	4	-0.1	-3
61. COc1cccc(Oc2ccc(N/C=C/C(=O)C(C)(C)C)cc2)c1
    -2	12	-10	1944	-3	-6.4	1
62. O=C(CC1S/C(=N/N=Cc2cccnc2)NC1=O)Nc1ccccc1 (stereo unspecified)
    -1	4	nt	nt	10	7.3	nt
63. O=C(O)CCCNC(=O)/C=C/c1ccco1
    -4	9	3	4364	3	5.3	-40
64. COCCn1c(SCc2ccccc2Cl)nc2c1c(=O)[nH]c(=O)n2C
    -10	nt	1	2466	nt	-2.4	-8
65. Cc1ccc(C(C)C)c(OCC(O)CNC2CCCC2)c1 (stereo unspecified)
    0	11	3	3977	13	3.9	-25
66. COC(=O)c1cc(S(=O)(=O)N2CCCC(C)C2)cn1C (stereo unspecified)
    6	-6	-3	4528	1	2.3	7
67. CC/C(=N\NC(=O)c1ccc(CN(C)S(=O)(=O)c2ccc(C)cc2)cc1)c1ccc(OC(F)F)cc1
    nt	nt	3	8242	nt	nt	-14
68. C/C(C=NNC(=O)CSc1nc(C)cc(C)n1)=C\c1ccccc1
    -6	5	nt	nt	15	-1.5	nt
69. Nc1n[nH]c(-c2ccccc2)n1
    -5	5	3	?	6	5.4	-9
70. CCOc1ccccc1N1CSC2=C(C#N)C(c3c(OC)ccc4ccccc34)CC(=O)N2C1 (stereo unspecified)
    nt	nt	-4	4861	nt	nt	-31
71. CCOC(=O)c1c(C)n(C)c2ccc(OC)c(NC(=O)CCN3CCC(Cc4ccccc4)CC3)c12
    2	6	-4	6658	-3	4.7	-7
72. Cc1ccnc2nc(C(=O)OCC(=O)Nc3ccc4c(c3)OCCO4)nn12
    -2	14	nt	4692	-21	-0.7	-13
73. CCCNS(=O)(=O)c1ccc(OCC(=O)N2CCC(C(=O)OCC)CC2)cc1
    -3	4	13	4169	1	5.5	-16
74. CCOc1ccc(S(=O)(=O)N2CCOCC2)cc1NC(=O)CSC(=S)N1CCCC1
    -2	-6	3	4096	-5	-3.0	-17
75. COc1cc2c(cc1OC)C(c1ccccc1F)OC(=O)C2 (stereo unspecified)
    4	7	0	2521	6	4.5	-28
76. COc1ccc(NC(=O)N2CCN(c3cccc(C(F)(F)F)c3)CC2)cc1
    -6	2	9	3828	-6	-1.5	14
77. O=C(Nc1c(C(=O)C2CC2)oc2ccccc12)c1ccc(Cl)cc1
    -4	nt	-12	2521	nt	5.5	-5

Screening data as filed in PubChem.

Compounds as they come. Share with any hit: about 4%.
